High-throughput results deposited in PubChem BioAssay by National Center for Advancing Translational Sciences (NCATS).
VACV Venus inh = vaccinia inhibition (Venus reporter); Potency, µM (highest dose often 36.5 µM), without a hit: top-dose activity change, negative = inhibition, most hits filed as inhibitors; Vaccinia virus Venus reporter expression, fluorescence; AID 720580; actives 0.46% (n = 330,000); active means well fitted inhibition curve with a large enough effect; inconclusive means small, poorly fitted or top-dose-only effect; inactive means no such curve, though single readings can be large or run the other way; tested in A549 cells; also: nearly all actives have a fitted effect of over 30% in size; inactives centre near -10
VACV mCherry inh = vaccinia inhibition (mCherry reporter). Potency, µM (doses to about 36.5 µM), for the others: top-dose activity change, negative = inhibition, hits mostly inhibitors. actives 0.63% (n = 310,000). AID 720579. Vaccinia virus mCherry reporter infection, fluorescence; about a quarter of the inactives have no number; active = well fitted inhibition curve with a large enough effect; inconclusive = small, poorly fitted or top-dose-only effect; inactive = no such curve, though single readings can be large or run the other way; tested in A549 cells; also: nearly all actives have a fitted effect of over 35% in size; inactives centre near -10
* marks the source's active call; other numbers are inactive results; i = inactive; ? = inconclusive; · = no result given; [ ] = remark or other dose. % is scaled to controls: 0 for no effect and ±100 for the full control effect; potency is read from the fitted curve at half-maximal effect.

SMILES | VACV Venus inh | VACV mCherry inh
Cc1nc2sc(C(=O)Nc3ccc(F)cc3)c(N)c2c(-c2ccc(Br)cc2)c1C(=O)Nc1ccc(Cl)cc1 | -19.8% | 3.1%
O=C(CSc1nnc2c(n1)[nH]c1ccccc12)Nc1ccc(N2CCOCC2)cc1 | -8.4% | -8.0%
Cc1c(NC(=O)CCCCCN2C(=O)c3ccccc3C2=O)c(=O)n(-c2ccccc2)n1C | -2.3% | -16.4%
O=c1[nH]c(=O)n(Cc2ccco2)c(O)c1C=NCCCn1ccnc1 | 0.3% | ·
Cn1cc(C(=O)NCc2ccccc2)c2ccccc21 | -24.3% | -2.9%
CNc1cc(-c2ccc(OC)c(OC)c2)ncn1 | -3.6% | 8.4%
COc1cc(OC)nc(Nc2nc(C(N)c3ccccc3Cl)cs2)n1 (stereo not drawn) | -7.7% | 14.9%
Cc1ccc(/C=C2\CCCC3=C2NC(=S)NC3c2ccc(C)cc2)cc1 (stereo not drawn) | -21.0% | -28.3%
CC(C)N1CCc2c(sc(N)c2C#N)C1 | -0.8% | -12.9%
CC(C)(C)c1ccc(CNc2ccc([N+](=O)[O-])cn2)cc1 | -26.0% | i
CC(=O)c1ccc(OCC(O)CN2CCN(S(=O)(=O)c3cccc(Br)c3)CC2)cc1 (stereo not drawn) | -25.0% | i
COc1cccc(N2C(=O)C3ON(c4ccccc4)C(c4cccs4)C3C2=O)c1 (stereo not drawn) | -8.5% | -21.5%
COc1cc2c(C(=O)N3CCN(C)CC3)c(C)n(C)c2cc1Br | -18.8% | ·
Cc1[nH]ccc(=O)c1OC1OC(CO)C(O)C(O)C1O (stereo not drawn) | -0.3% | -4.6%
O=c1c2c(nc3cc(-c4cccc(Cl)c4)[nH]n13)CCCC2 | -1.5% | i
Cc1ccc(S(=O)(=O)NCCN2CCOCC2)c(C)c1C | -16.8% | -21.5%
C=CCc1cccc2cc(C(=O)NCc3cccnc3)c(=O)oc12 | -24.8% | ?
CCN(CC)CCCNC(=O)c1ccc2c3n(nc2c1)-c1ccc(Cl)cc1CO3 | -25.6% | -9.5%
CC1CCCCN1Cc1cccnc1 (stereo not drawn) | 2.4% | -9.6%
C[C@H]1CN([C@@H](C)CO)S(=O)(=O)c2ccc(-c3cccc(F)c3)cc2O[C@@H]1CN(C)C | -8.2% | -11.9%
COc1ccc(NC(=O)Nc2ccc3nsnc3c2)cc1 | -10.0% | -16.6%
O=C(OCC(=O)N1CCN(C(=O)c2ccco2)CC1)c1ccc(Cl)c(Cl)c1 | -14.9% | i
COc1ccc(OC)c(C(=O)CSc2nc3ncccc3[nH]2)c1 | -19.4% | -14.4%
O=C(Nc1nccs1)c1ccc(S(=O)(=O)c2ccccc2)cc1 | ? | ?
Cc1[nH]c(C)c(S(=O)(=O)NCc2ccc(F)cc2)c1C(=O)N1CCCC1 | -2.9%[7.34 µM] | -2.8%[7.34 µM]
COc1ccc(Cn2c(CO)cnc2SCC(=O)NCc2ccco2)cc1 | -2.5% | 11.7%
COc1cccc(-n2nc(C(N)=O)c(O)cc2=O)c1 | -8.1% | i
Cc1ccc(C)c(NC(=S)NC(C)C(c2cccs2)N2CCOCC2)c1 (stereo not drawn) | -7.5% | -6.6%
O=C(NC1CS(=O)(=O)CC1NCc1ccco1)c1ccccc1 (stereo not drawn) | -13.3% | -17.0%
CC1CCN(C(=O)C2COc3ccccc3C2)CC1 (stereo not drawn) | -16.8% | -13.1%

Record cards, as listed above. Order of values: VACV Venus inh | VACV mCherry inh
Results for COc1ccc(Cn2c(CO)cnc2SCC(=O)NCc2ccco2)cc1 = -2.5% | 11.7%
Results for COc1cccc(-n2nc(C(N)=O)c(O)cc2=O)c1 = -8.1% | i

(cont.)
SMILES | VACV Venus inh | VACV mCherry inh
CC1=CC2(O)OCCN(CCO)C2=CC1=O (stereo not drawn) | 9.1% | -4.9%
CCOCc1nnc(NC(=O)CCC2CCCCC2)s1 | -15.8% | i
Fc1ccc(Cn2c(-c3cccc(Br)c3)nc3ccccc32)cc1 | -4.0% | -9.7%
Cc1ccc(N=c2sc(C)c(C)n2C)cc1 | -13.6% | i
COc1ccccc1NC(=O)CSc1nnnn1-c1ccc(F)cc1 | -12.6% | i
CC1(C)Cc2c(sc(NC(=O)c3ccc(S(=O)(=O)N4CCCCCC4)cc3)c2C#N)C(C)(C)N1 | -17.4% | i
COc1ccc(-n2nnnc2SCC(=O)c2ccc(OC)c(OC)c2)cc1 | -23.6% | -22.4%
COc1ccc(-c2n[nH]c3c2cnc2ccc(F)cc23)cc1 | -4.9% | -6.7%
CC(C)Oc1cccc(C(=O)Nc2ccccc2N2CCOCC2)c1 | -9.9% | -20.0%
COc1ccc(CCNC(=O)Cc2ccc(OC)c(OC)c2)cc1OC | -5.7% | -10.9%
O=C1c2ccccc2C(=O)N1CCCCN(C(=O)c1cc([N+](=O)[O-])cc([N+](=O)[O-])c1)c1ccc(Cl)cc1 | -25.2% | -10.5%
CCOc1ccc(C(C)=O)cc1N1C(=O)C2C(C1=O)C1C=CC2C12CC2 (stereo not drawn) | -14.0% | i
CCN(CC)c1ccc(/C=C/C(=O)C2C(=O)C=C(C)OC2=O)cc1 (stereo not drawn) | 284.5%[activator] | 19.5%
CN(CC(=O)Nc1ccc(Cl)c(Cl)c1)CC(=O)N1CCCCCC1 | -20.6% | i
Cc1cc(C)cc(NS(=O)(=O)c2ccc(F)cc2)c1 | -9.5% | -7.9%
CCCCC(=O)N1CC2(C)CN(C(=O)CCCC)CC(C)(C1)C2=O | -21.9% | ·
CCN1C(=O)C(C(=O)c2ccccc2)SC1=S (stereo not drawn) | 82.3%[activator] | 38.8%[activator]
COc1cc(C2C(C(=O)OC(C)C)=C(C)N=C3SCCC(=O)N32)ccc1OCc1ccccc1 (stereo not drawn) | -16.8% | -14.5%
CCOC(=O)c1c(NC(=O)c2ccc(S(=O)(=O)N3CCC(C)CC3)cc2)sc2c1CCN(C(C)C)C2 | -21.4% | -18.6%
CCc1ccc(NC(=O)Cn2c(=O)c3cc(Cl)ccc3n3nncc23)cc1 | 0.6% | 6.7%
Cc1ccc(C(=O)N[C@@H](C)CN2C3=NC[C@H](C(C)C)N3C[C@H]2Cc2ccc(O)cc2)cc1Br | -23.0% | -13.9%
CC(=O)Nc1nc2[nH]ccc2c(=O)[nH]1 | 1.0% | i
COc1ccc(CNS(=O)(=O)c2ccc3c(c2)CC(C)N3C(=O)C2CC2)cc1 (stereo not drawn) | -17.2% | -23.0%
O=C(c1ccc(F)cc1)N1CCN(C2=NS(=O)(=O)c3ccccc32)CC1 | -13.5% | -0.1%
Cc1ccc2cc(CN(CC3CCCO3)S(=O)(=O)c3cccc4nsnc34)c(=O)[nH]c2c1 (stereo not drawn) | -12.2% | -7.1%
CCCCNC(=O)c1ccc2nc(-c3cccs3)c(-c3cccs3)nc2c1 | -3.8% | 22.9%
Cc1c(CNC(=O)C2CCC(=O)N(CCc3ccccc3)C2)cnn1C (stereo not drawn) | -3.2% | i
CCOC(=O)C1CCCN(S(=O)(=O)c2cc3c4c(c2)CC(=O)N4CCC3)C1 (stereo not drawn) | -15.5% | -13.1%
C[C@H]1CCC[C@@]2(O[C@H](CCO)C[C@H](O)[C@H]2O)O1 | -0.1% | i
COC(=O)c1cc(O)c(OCc2ccccc2)c(O)c1 | -14.3% | -27.2%
O=[N+]([O-])c1cc([N+](=O)[O-])c2cc(-c3cccnc3)[nH]c2c1 | 16.6% | -28.2%
CC1(C(=O)Nc2ccc3c(c2)OCCO3)CN(S(C)(=O)=O)CC(=O)N1CCCn1ccnc1 (stereo not drawn) | -3.3% | -14.7%
COc1ccc(-n2ccnc2SCC(=O)Nc2ccccc2)cc1 | -8.8% | -21.8%
COc1ccc(N=c2ssnc2Cl)cc1 | -8.5% | i
COc1ccc(C(=O)NNC(=O)CN(C)S(=O)(=O)c2ccc(Cl)cc2)c(OC)c1OC | -17.0% | -8.5%
O=S(=O)(c1ccc(Cl)cc1)N1CCC(n2cnc3cc(C(F)(F)F)ccc32)CC1 | -23.6% | -10.9%
Cc1ccc(C)n1-c1nccc(-c2cccs2)n1 | -14.1% | -23.1%
CCN(c1ccccc1)S(=O)(=O)c1ccc(C(=O)N2CCCC(C(F)(F)F)C2)cc1 (stereo not drawn) | -18.2% | -20.2%
CCOc1ccc(NC(=O)c2c(NCc3sccc3C)sc3c2CCCCC3)cc1 | -2.8%[7.34 µM] | -13.7%[7.34 µM]
COC(=O)CCC(=O)Nc1ccc2oc3c(c2c1)CCCC3 | 1.4% | -18.1%
O=C(COc1ccc2oc(-c3ccccc3)cc(=O)c2c1)Nc1ccccc1 | -11.0% | -12.8%
COc1ccc(CCNC(=O)c2cc(-c3ccncc3)nc3ccc(S(=O)(=O)N4CCOCC4)cc23)cc1OC | 0.0%[7.34 µM] | -1.3%[7.34 µM]
CCCc1ccc(S(=O)(=O)N2CCC(c3nnnn3-c3ccc(OC)cc3)CC2)cc1 | -9.9% | -8.7%
O=C(Cn1cnc2c(cnn2-c2ccccc2)c1=O)N1CCOCC1 | -7.7% | i
CCNC(=O)C1(C)CCN(Cc2ccccc2C#N)C1 (stereo not drawn) | -2.9% | i

Sorted by length of the SMILES (ascending): 3 of the compounds above.
SMILES | VACV Venus inh | VACV mCherry inh
O=C(Cn1cnc2c(cnn2-c2ccccc2)c1=O)N1CCOCC1 | -7.7% | i
O=C(COc1ccc2oc(-c3ccccc3)cc(=O)c2c1)Nc1ccccc1 | -11.0% | -12.8%
COc1ccc(C(=O)NNC(=O)CN(C)S(=O)(=O)c2ccc(Cl)cc2)c(OC)c1OC | -17.0% | -8.5%

The results go on:
SMILES | VACV Venus inh | VACV mCherry inh
S=c1[nH]nc(C2CCCCC2)n1/N=C/c1ccccc1Br | -15.5% | i
COc1ccc(-c2cn[nH]c2-c2ccc(OCc3ccccc3)cc2O)cc1OC | ? | 11.2µM*
COc1ccc2[nH]c3c(c2c1)CCN1C(=O)C(CC(=O)NCCc2ccccn2)C[C@H](C(=O)N2CCOCC2)[C@@]31C (stereo partly drawn) | -11.8% | i
CC(C)n1nccc1NC(=O)COC(=O)c1ccc(NC(N)=O)cc1 | 2.9% | -29.0%
Nc1ccc(N2CCCCC2)c(S(=O)(=O)Nc2ccccc2Cl)c1 | -6.1% | -28.3%
O=C1CCCCC1Oc1ccc2ccc(=O)oc2c1 (stereo not drawn) | -16.9% | i
CCN=c1scc(-c2cccs2)n1/N=C/c1cc(OC)ccc1O | -13.7% | -1.6%
Cc1cccc(-c2nc3c4ccccc4nc(N4CCN(c5cc(C)ccc5C)CC4)n3n2)c1 | -8.4% | -16.8%
CC(=O)CCC(=O)N1CCCC(N2CCN(c3cccc(Cl)c3)CC2)C1 (stereo not drawn) | -9.3% | -6.0%
C[C@@H]1CN([C@@H](C)CO)C(=O)CCCn2nncc2CO[C@H]1CN(C)C(=O)Oc1ccc2ccccc2c1 | -15.9% | i
CC1=NN(C(=O)c2ccc(Cn3nc(C)c([N+](=O)[O-])c3C)o2)C(O)(C(F)(F)F)C1 (stereo not drawn) | -8.0% | -23.5%
COc1cc(OC)nc(-n2ncc(OC)c(Br)c2=O)n1 | -7.0% | -4.7%
CCOc1ncccc1C(=O)N=c1sccn1C | -20.6% | -14.4%
CCc1ccccc1NC(=S)N1CCN(c2ccccn2)CC1 | -10.4% | -9.0%
COc1ccc(CCNC(=O)c2ccc3c(c2)N(Cc2ccccc2Cl)C(=O)c2ccccc2S3)cc1OC | -6.1% | -9.2%
COc1ccc(-n2nnnc2-c2ccccc2)cc1 | -23.3% | ?
O=C(CN1CCN(Cc2ccc3c(c2)OCO3)CC1)Nc1ccc(F)cc1 | -20.5% | -22.9%
Cc1ccc(C)c(NC(=S)N2CCC(N(C)CC3CCCO3)CC2)c1 (stereo not drawn) | -3.5% | -16.3%
O=C1NCCN(Cc2c(F)cccc2Cl)C1CC(=O)N1CCCCO1 (stereo not drawn) | -2.7% | i
CS(=O)(=O)c1ccc2nc(NC(=O)Cc3ccccc3)sc2c1 | -4.5% | i
CCOc1ccccc1NC(=O)C1CCN(S(=O)(=O)Cc2ccccc2)CC1 | -1.0% | 9.7%
CCCSc1nc2sc3c(c2c(=O)n1-c1ccc(OC)cc1)CCN(C)C3 | 0.6% | -29.6%
Cc1ccc(S(=O)(=O)N2C[C@H]3C(=O)C[C@@H](c4ccccc4)N(S(=O)(=O)c4ccc(C)cc4)[C@H]3C[C@H]2c2ccccc2)cc1 | -13.4% | -4.4%
CN(CCO)c1nc2c(c(=O)n(Cc3ccc(Cl)cc3)c(=O)n2C)n1C | -9.0% | -11.9%
CCN1C(=O)[C@@H]2[C@@H](c3ccc(-c4ccc(C(C)=O)cc4)c(OC)c3)N3CCCC[C@@]3(C(=O)OC)[C@@H]2C1=O | -27.7% | -15.3%
CN(CCc1ccccc1)C(=O)c1cccc(NC(=O)Cc2cccc(NC(=O)C3CCN(C(=O)C4CC4)CC3)c2)c1 | -2.0% | i
CCOC(=O)N1CCc2c(sc3c2c(=O)n(-c2ccc(CC)cc2)c(=O)n3CC(=O)c2ccc(F)cc2)C1 | -12.5% | 3.1%
COC(=O)C1Cc2c([nH]c3ccccc23)C(C(C)C)N1 (stereo not drawn) | -17.3% | -28.4%
O=C(NNC(=S)NC1CCCCC1)c1ccccc1O | -21.0% | ?
Cc1cccc(Cn2c(SCc3ccc(C(=O)NCCc4ccccc4)cc3)nc3cccnc32)c1 | ? | ?
CCC(=O)c1cn(Cc2ccc(C#N)cc2)c2ccccc12 | -8.9% | ·
N#CC1=C(N)Nc2nc3ccccc3n2C1c1ccc(Cl)cc1 (stereo not drawn) | -13.0% | -17.7%
